# High-throughput results from PubChem BioAssay.
# D2 ag – human D2 receptor agonism in beta-arrestin assay; P14416; DiscoveRx PathHunter D2 beta-arrestin, luminescence, 90 min; 100% = 57 uM dopamine signal; activation, % (concentration not given with the values); 360,000 compounds, 0.084% hits; AID 624465; in the data active = activation above about 40%; inconclusive = about 15% to 40%; inactive = below about 15%; also: the text of the record calls up to 30% inactive
#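 Agonist mode: compounds alone added to overnight-plated D2 PathHunter cells for 90 min at 37 C, with 57 uM final dopamine (EC100) defining full response. Beta-arrestin recruitment detected by chemiluminescent reagent, read after 1 h at ambient temperature.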
# TRPV1 potentiator – enhances activation of the human vanilloid receptor TRPV1 | potentiation, % at 8.33 µM | 320,000 compounds, 0.02% hits | TRPV1-expressing cells, Fluo-8 calcium influx, capsaicin EC20 potentiation; host cell line not named in the record; control for the full effect not named in the record; active means potentiation above 80%; inconclusive means 30% to 80%; inactive means below 30%; also: 0% is about no effect
#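 Fluo-8 calcium influx in TRPV1-expressing cells, kinetic read (ex 480/em 520 nm). Compound added and read 3 min for agonist activity, followed by capsaicin at EC20 final and 2 min further read for enhancement.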
# Sfp inh – blocks B. subtilis Sfp PPTase activity; AID 1490; 310,000 compounds, 3.5% hits; Biochemical Sfp PPTase activity, qHTS; Potency, µM, for the others: max response, negative = inhibition, actives largely listed as inhibitors; active = well fitted inhibition curve with a large enough effect; inconclusive = small, poorly fitted or top-dose-only effect, or another doubt; inactive = no such curve, though single readings can be large or run the other way;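 also: the enzyme is Sfp with the accession as filed and its product quenches rhodamine fluorescence; potency is read from the fitted curve at half-maximal effect; 0% = enzyme reaction without inhibitor and -100% = no enzyme wells; top concentration of the series not given in the record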
#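 With Hepes-Na pH 7.6 buffer containing 10 mM MgCl2, Sfp (15 nM) modified BHQ-2-YbbR (12.5 uM) using rhodamine-CoA (5 uM). Two reads 30 minutes apart at 525/598 nm yielded each well's rate.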
# D2 potentiator – human D2 receptor positive allosteric modulation; DiscoveRx D2 beta-arrestin cells, luminescence, 90 min; 100% = 57 uM dopamine signal; potentiation, % (no concentration beside the values); 360,000 compounds, 0.23% hits; active = potentiation of 50% or more; inconclusive = 30% to 50%; inactive = 30% or less;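 also: compound concentration not given in the record; tested on top of an EC20 dose of dopamine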
#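 PathHunter beta-arrestin assay in DiscoveRx D2 cells. Compounds were added with an EC20 of dopamine (50 nM final) for 90 min at 37 deg C. Luminescence was read 1 h after detection reagent, with 57 uM dopamine as the EC100 control.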
# CtBP-E1A inh – blocks the CtBP interaction with E1A | 340,000 compounds, 0.49% hits | activity change, % (no concentration beside the values) | AID 651724 | AlphaScreen GST-E1A/His-CtBP binding, 1536-well; hits give low values; control for the full effect not named in the record; in the data active means activity change below about -65%; inconclusive means about -30% to -65%; inactive means above about -30%; also: % is scaled to controls: 0 for no effect and ±100 for the full control effect
#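 AlphaScreen with 125 nM GST-E1A and 125 nM His-CtBP (5X stocks) in Tris pH 8.0, 300 mM NaCl, BSA, Tween 20, TCEP. Compounds preincubated 2 h at 37 deg C, then glutathione donor/nickel acceptor beads added for 1 h at 37 deg C in dark.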
# PINK1 expr mod – changes PINK1 expression; PINK1 immunofluorescence, high-content cytometry, 24 h; Potency, µM (top dose mostly 76.6 µM), inactives show at the highest dose activation (PINK1 increase), actives largely listed as activators; 410,000 compounds, 0.2% hits; AID 624263; active = well fitted activation curve with a large enough effect; inconclusive = small, poorly fitted or top-dose-only effect; inactive = flat fitted curve, though single readings scatter; cell line not stated here;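 also: potency is read from the fitted curve at half-maximal effect; % of control where 0% means no effect; nearly all actives have a fitted effect of over 65% in size; a mitochondrial uncoupler was the plate control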
#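 Compound titrations (5 concentrations, 24 h) on a stable cell line; DMSO and CCCP controls. Endpoint: fixed-cell PINK1 immunofluorescence with mitochondrial, cell and nuclear markers, scanned by microplate cytometer.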
# Six1-Eya2 inh – blocks human Six1 binding to Eya2; AlphaScreen GST-Six1/His-Eya2 binding, biochemical; hits give low values; control for the full effect not named in the record; activity change, % (concentration not given with the values); 360,000 compounds, 0.56% hits; in the data active = activity change below about -65%; inconclusive = about -30% to -65%; inactive = above about -30%; also: % is scaled to controls: 0 for no effect and ±100 for the full control effect
# Target sequence (O00167 whole entry, looked up): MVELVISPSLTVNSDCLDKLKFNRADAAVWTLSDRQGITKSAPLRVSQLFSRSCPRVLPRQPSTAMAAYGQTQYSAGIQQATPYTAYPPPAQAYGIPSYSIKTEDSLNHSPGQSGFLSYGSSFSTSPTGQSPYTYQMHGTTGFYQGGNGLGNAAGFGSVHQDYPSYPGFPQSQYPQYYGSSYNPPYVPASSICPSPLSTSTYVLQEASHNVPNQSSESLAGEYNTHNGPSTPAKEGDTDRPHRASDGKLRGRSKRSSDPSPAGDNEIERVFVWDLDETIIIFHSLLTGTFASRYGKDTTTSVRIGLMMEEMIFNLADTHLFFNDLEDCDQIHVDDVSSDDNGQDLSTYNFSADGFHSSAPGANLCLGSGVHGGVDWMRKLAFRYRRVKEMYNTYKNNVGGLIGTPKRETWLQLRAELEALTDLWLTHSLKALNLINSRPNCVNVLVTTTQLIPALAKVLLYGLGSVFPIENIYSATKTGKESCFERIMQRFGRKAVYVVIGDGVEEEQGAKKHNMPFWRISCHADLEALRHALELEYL
# Target sequence (Q15475 whole entry, looked up): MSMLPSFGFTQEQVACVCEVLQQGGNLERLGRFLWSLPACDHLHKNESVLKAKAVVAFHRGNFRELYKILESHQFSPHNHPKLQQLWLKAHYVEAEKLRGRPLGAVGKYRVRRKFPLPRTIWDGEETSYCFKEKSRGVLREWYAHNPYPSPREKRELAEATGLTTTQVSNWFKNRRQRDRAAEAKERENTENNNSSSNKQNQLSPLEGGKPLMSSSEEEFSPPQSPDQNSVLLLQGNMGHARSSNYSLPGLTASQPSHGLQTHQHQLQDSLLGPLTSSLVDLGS
#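 Six1/Eya2 binding was read as AlphaScreen signal after compounds were pinned into GST-Six1 plus His-tagged Eya2 (5X stock 250/500 nM) in pH 8.0 Tris/NaCl/TCEP buffer, beads added, then incubated 1 h, 37 C, dark.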
# An asterisk follows results filed as active; ? = inconclusive; / = no result given; & = joins results of further samples; [ ] = another dose, or the depositor's remark.
no.	SMILES	D2 ag	Six1-Eya2 inh	Sfp inh	TRPV1 potentiator	CtBP-E1A inh	D2 potentiator	PINK1 expr mod
1	CC(C)CCOP(=O)(c1ccc(N(C)C)cc1)C(O)c1ccc(N(C)C)cc1 (centres undefined)	-2.9	-9.8	0.1%	6.3	-19.2	-10.3	-1.9%
2	COc1ccc(CN2C(=O)c3oc4ccccc4c(=O)c3C2c2ccc(O)c(OC)c2)cc1 (centres undefined)	1.0	8.0	7.6%	-4.1	4.3	-1.2	2.2%&1.5%
3	CCOC(=O)c1c(CSc2ccsc2)n(C)c2cc(Br)c(O)c(CN(C)C)c12	0.3	-23.0	-21.1%	-1.4	-0.6	-16.8	0.9%
4	O=C(NCC(c1cccnc1)N1CCOCC1)c1cccc(Cl)c1 (centres undefined)	-1.3	6.5	24.9%	-20.1	-3.6	4.2	1.3%
5	COc1ccccc1NC(=S)NC(=O)CC(C)C	-0.7	-9.7	4.2%	-5.5	2.3	-7.3	-0.6%
6	O=C(Cn1cnc2c(nnn2Cc2ccccc2)c1=O)c1ccccc1	0.2	3.7	25.3%	-2.4	2.0	-2.3	0.0%
7	CN1CCC(=C(c2ccccc2)c2ccc(Br)cc2)CC1	-4.0	-14.0	/	/	/	-32.5	-1.4%
8	O=C(CSc1ccc(-c2ccco2)nn1)c1ccc(F)cc1	7.5	?	31.6µM*	-8.6	-0.2	-8.3	0.1%
9	COc1ccccc1/C=C1/SC(=O)N(CCC(=O)Nc2ccc(S(=O)(=O)Nc3nccs3)cc2)C1=O	-6.0	-28.8	6.6%	-8.9	-9.8	-12.4	1.0%
10	O=C(c1ccco1)N1CCN(c2nc(C3CC3)nc3sc4c(c23)CCCC4)CC1	-1.9	-11.1	79.4µM*	-16.4	-29.7	-1.7	0.0%[38.3 µM]
11	Cc1cc(/C=C2\NC(=O)N(Cc3ccc(Cl)cc3)C2=O)c(C)n1C	-2.8	-12.4	0.3%	5.5	-0.7	-8.6	0.7%
12	CCOC(CCNC(=O)c1cn(C)c(=O)c2c1c1ccccc1n2C)OCC	1.9	-2.4	10.4%	20.1	/	-7.1	1.6%
13	COc1ccc(CNC(=O)C[C@@H]2C[C@H]3c4cc(NC(=O)C5CCC5)ccc4O[C@H]3[C@@H](CO)O2)cc1	-1.2	5.9	/	/	-13.9	3.1	1.1%
14	CN(C)CCNC(=O)c1cc2c(=O)n(C)c3ccccc3c2n1C	1.6	-4.1	-4.0%	6.6	-0.6	-2.6	1.5%
15	O=C(NCCN1CCCC1)c1ccc(Cl)cc1	0.0	-1.5	7.6%	4.4	/	-18.9	2.1%
16	O=C(NN=C1CCCC1)c1[nH]c2ccc(Br)cc2c1-c1ccccc1	-1.9	-7.1	-2.1%	-5.7	-12.8	6.4	0.9%
17	Cc1cc(/C=N/NC(=O)c2ccncc2)c(C)n1-c1ccccc1	-0.9	-17.3	9.0%	-36.5	-17.2	-6.5	1.1%
18	O=C(NCc1ccccc1)c1cc2ccccc2o1	-1.8	27.0	-23.1%	8.0	0.3	-18.1	-0.5%&-1.4%
19	OCC#CCSc1nnc(-c2ccc(Br)cc2)o1	-2.6	0.4	19.1%	-0.7	3.8	13.3	5.9%
20	COc1ccc(CC(=O)N2N=C(C)CC2(O)C(F)(F)F)cc1 (centres undefined)	1.9	5.2	18.3%	-4.5	0.0	-3.0	1.0%
21	COc1ccc(CCNC(=O)C2CCN(C(=O)c3ccc(OC)c(OC)c3)CC2)cc1	-3.8	-1.2	12.5%	-1.0	-18.1	-4.7	0.7%
22	COc1ccc(-c2noc(=O)n2Cc2ccc(F)cc2Cl)cc1	4.3	0.3	10.1%	-0.5	14.0	12.3	2.5%
23	COc1cccc(OCC(=O)NNC(=O)c2ccc3ccccc3c2)c1	4.3	7.4	10.1%	11.7	4.2	-0.3	-1.0%
24	O=C(Nc1ccc(Cl)cc1C(F)(F)F)C(Sc1cccc[n+]1[O-])c1ccccc1 (centres undefined)	-1.2	-4.1	2.0%	1.0	4.4	-21.4	0.8%
25	O=C(COC(=O)c1cc(S(=O)(=O)N2CCOCC2)ccc1Cl)NCc1ccc2c(c1)OCO2	-2.6	-0.9	/	4.2	/	1.2	-0.7%
26	Cn1c(=O)c(=O)n(C)c2cc(S(=O)(=O)NCc3ccc(Cl)cc3)ccc21	-2.7	-0.4	18.8%	-8.4	/	-11.2	-1.0%
27	COc1ccccc1NC(=O)Cc1noc(CSc2nnc(N)s2)n1	0.4	6.5	?	7.2	-1.6	-18.5	-1.9%
28	CC(C)(C)n1nnnc1C(c1ccccc1)N1CCN(c2ccccn2)CC1 (centres undefined)	/	5.2	/	/	5.3	/	-0.1%
29	C=CCn1c(O)c(N=NC(=O)OCC)c2ccccc21	-3.3	-4.8	1.6%	-14.8	-19.8	-26.2	-3.4%
30	CCOC(=O)C1CCCN(C(=O)c2sc3nc(C)nc(N(CC)CC)c3c2C)C1 (centres undefined)	-1.8	-0.3	19.2%	-15.9	6.4	-3.4	0.2%[38.3 µM]

# Arranged by the number under Sfp inh (falling): 3 of the compounds above
cpd | SMILES | D2 ag | Six1-Eya2 inh | Sfp inh | CtBP-E1A inh | D2 potentiator | PINK1 expr mod
2 | COc1ccc(CN2C(=O)c3oc4ccccc4c(=O)c3C2c2ccc(O)c(OC)c2)cc1 (centres undefined) | 1.0 | 8.0 | 7.6% | 4.3 | -1.2 | 2.2%&1.5%
16 | O=C(NN=C1CCCC1)c1[nH]c2ccc(Br)cc2c1-c1ccccc1 | -1.9 | -7.1 | -2.1% | -12.8 | 6.4 | 0.9%
14 | CN(C)CCNC(=O)c1cc2c(=O)n(C)c3ccccc3c2n1C | 1.6 | -4.1 | -4.0% | -0.6 | -2.6 | 1.5%

# Next part
no.	SMILES	D2 ag	Six1-Eya2 inh	Sfp inh	TRPV1 potentiator	CtBP-E1A inh	D2 potentiator	PINK1 expr mod
31	CNc1cncc(-c2cc(OC)c(OC)c(OC)c2)n1	4.4	-5.2	/	/	-5.1	-5.1	3.0%
32	CC(CN1C(C)CCCC1C)OC(=O)c1cccc(Br)c1 (centres undefined)	0.5	3.9	10.7%	3.0	-0.1	-7.8	2.9%
33	CC1CCN(S(=O)(=O)c2ccc(S(=O)(=O)N3CCC4(CC3)OCCO4)cc2)CC1	-0.8	-1.3	1.9%	-0.6	8.2	-10.2	7.6%
34	Cc1ccc(CNC(=O)CCNC(=O)Cn2ccc3ccccc3c2=O)o1	0.4	-2.9	4.8%	-8.8	-2.9	3.3	/
35	O=C(Cn1nc(-c2ccccc2)c2ccccc2c1=O)NN1CCOCC1	-1.5	5.3	21.7%	21.5	12.0	-5.6	2.3%
36	CN(c1ccccc1)S(=O)(=O)c1cc(C(=O)NCCCn2ccnc2)ccc1Cl	-2.8	-0.1	/	-14.2	/	-14.0	1.4%
37	CCOC(=O)Cn1nc(Cc2ccccc2)c2ccccc2c1=O	-5.9	0.3	-13.1%	-7.4	-0.5	-6.7	-0.8%
38	Nc1nc2c(s1)C(=O)CC(c1ccccc1)C2 (centres undefined)	-0.8	5.0	44.7µM*	-5.0	-2.5	-6.3	-1.6%
39	COc1cc(/C=C/C(=O)NCc2nc3ccccc3[nH]2)cc(OC)c1OC	-1.4	-1.1	3.4%	?	-10.6	-21.3	2.8%
40	Cc1nnc(Sc2c(N)n(C)c(=O)[nH]c2=O)s1	-0.5	-0.4	10.1%	-19.6	6.0	-3.1	4.6%[38.3 µM]
41	CCOC(=O)C1CN(C(=O)OCC)CC1=NNC(N)=O (centres undefined)	2.7	-6.5	/	/	3.3	-5.0	0.1%
42	CC1CCN(C(=O)CSc2nc(C3CC3)nc3ccccc23)CC1	1.4	4.6	2.9%	18.3	0.4	5.4	-2.2%
43	CC(C)(C)Nc1nc(Cl)nc(NC2CCCCC2)n1	?	-16.8	3.8%	-8.0	3.2	-7.3	2.5%
44	O=C(NNC(=S)NC(=O)C12CC3CC(CC(C3)C1)C2)c1ccncc1	-9.0	-11.1	-24.1%	-26.5	-17.6	-37.9	5.6%[38.3 µM]
45	CCCCN(CCCC)CCCNC(=O)CN1C(=O)COc2ccc(S(=O)(=O)N3CCC(C)CC3)cc21	1.3	3.9	5.3%	-0.3	-2.0	-4.6	0.4%
46	Nc1nnc(CSCc2cccc(Br)c2)s1	-3.4	1.7	18.4%	0.6	0.0	-4.0	-1.0%
47	COC(=O)c1cc(OC)c(OC)cc1NC(=O)C(C)Sc1ccc(C)cc1 (centres undefined)	1.0	-1.3	2.5%	2.9	2.4	5.8	7.0%[38.3 µM]
48	CCCc1cc(=O)oc2cc(OCC(=O)N3C[C@H]4C[C@@H](C3)c3cccc(=O)n3C4)c(Cl)cc12	-4.3	5.1	10.8%	6.3	-4.0	-37.6	0.2%
49	COc1ccc2cnnc(SCC(=O)Nc3ccc(C(C)=O)cc3)c2c1OC	-6.3	-2.9	6.0%	0.0	-13.6	-3.2	1.1%
50	CC(=O)Nc1cccc(NS(=O)(=O)c2cc3c4c(c2)CCN4C(=O)CC3)c1	-2.0	-5.1	/	-26.1	-0.4	16.0	-0.3%
51	O=S(=O)(c1ccc(NC(=S)N2CCCCC2CO)cc1)N1CCOCC1 (centres undefined)	-1.5	-6.3	/	/	3.5	-3.8	-0.9%
52	Cc1nc(C)c(C(=O)OCC(=O)N(C)c2ccccc2)s1	1.3	5.9	/	1.6	1.0	-1.4	-0.3%
53	COc1ccc(-c2cc(C(=O)NCC3CCCO3)on2)cc1OC (centres undefined)	3.5	0.1	22.8%	1.5	2.7	-2.0	0.0%
54	COc1ccc(N=Cc2nc(-c3ccccc3)oc2OC(=O)c2ccccc2)cc1	2.2	4.1	-17.1%	-23.3	/	2.6	0.5%
55	CC(C)CN(C(=O)CN1C(=O)C2CCCCC2C1=O)c1c(N)n(Cc2ccccc2)c(=O)[nH]c1=O (centres undefined)	0.8	-6.3	26.7%	-0.3	-3.7	-9.8	-0.7%
56	O=S1(=O)c2ccc(Br)cc2N2CCC[C@@H]2CN1Cc1ccccc1	-1.1	-0.7	/	/	0.0	-12.0	1.1%
57	Cc1[nH]n(-c2cccc3ccccc23)c(=O)c1/C=N/c1sc2c(c1C#N)CCC2	5.1	-2.5	79.4µM*	2.6	-5.9	-9.2	3.0%
58	COc1ccc(C(=O)Nc2ccc(Cl)cc2F)cc1S(=O)(=O)N1CCCC1	3.9	0.1	/	-23.9	-1.3	-0.9	1.9%
59	Cc1cc(C)c(COc2ccc(/C=N/n3c(C)n[nH]c3=S)cc2)c(C)c1	-7.2	-8.4	50.1µM*	-5.3	-9.6	-9.1	5.0%
60	O=C(C1CCCC1)N1CCN(S(=O)(=O)c2ccc(F)cc2)CC1	3.2	-1.1	-4.7%	-37.0	10.7	-0.8	-1.3%
